Screening results: PubChem BioAssay, ICCB-Longwood Screening Facility, Harvard Medical School
VACV E9 pol inh – inhibitors of vaccinia virus processive DNA synthesis (E9 polymerase); 0.94% of 46,000 active; in vitro processive DNA synthesis, absorbance read-out; hits give low values; some inactives read as strong as hits; normalized absorbance, % (concentration not given with the values); AID 493162;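 active means replicate mean up to 90% and picked by the depositor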;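 further: 100% = median of the test wells of a plate; 100 nL library stock went into each well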
* hit, by the source's call. Some of the compounds tested, so the mix of outcomes need not match the whole.

SMILES	VACV E9 pol inh
O=C(NCCc1c[nH]c2ccccc12)c1cc2c(s1)CCC2	105.1
CCOC(=O)c1c(NC(=O)c2cc(-c3ccc4c(c3)OCO4)on2)sc2c1CCCC2	101.1
O=C(COc1ccccc1)OCc1nc2ccccc2s1	99.8
CS(=O)(=O)N1CCN=C1SCc1cccc2ccccc12	50.6*
C=CCOc1ccc2ccc(=O)oc2c1	94.7
O=C(OCC(=O)N1CCOCC1)c1cc(F)c(F)cc1Cl	106.1
Cc1nnc(SCC(=O)c2ccc(Cl)cc2)s1	100.1
CC1CCCCN1S(=O)(=O)c1ccc(F)c(C(=O)Nc2c(F)cc(F)cc2Br)c1 (stereo unspecified)	91.7
CCSc1nc2c(c(=O)n1CC)C1(CCCC1)Cc1ccccc1-2	100.2
c1ccc(NCC2OCc3ccccc3CO2)cc1	100.3
CC(Oc1ccc(F)cc1)C(=O)NCc1ccncc1 (stereo unspecified)	106.3
COc1ccc(C(=O)CN2CCCc3cc(C)ccc32)cc1	105.4
CC(C)S(=O)(=O)/C(C#N)=C/Nc1ncccn1	97.6
CCOc1ccc2c(c1)SC1=NC(C(F)(F)F)(C(F)(F)F)NC(=O)N12	107.7
COC(=O)Cc1[nH]n(-c2ccccc2)c(=O)c1C=Nc1ccc(C)cc1	99.6
CCn1cc(CCCC(=O)NCCC2=CCCCC2)c2ccccc21	102.4
Cc1cc(C)cc(CC(C(=O)O)C(C)C(=O)Nc2cccc(C(F)(F)F)c2)c1 (stereo unspecified)	100.0
Cn1c(=N)n(CC(=O)C23CC4CC(CC(C4)C2)C3)c2ccccc21	100.5
Cc1cc(CC(=O)O)n(C)c1C(=O)c1ccc(Cl)cc1	100.4
CN(C)/C=C1\C(=O)N(c2ccccc2)C(=O)C1=Nc1ccccc1	104.9
O=S(=O)(c1ccccc1)N1CCC(N2CCCCC2)CC1	101.4
CCOc1ccc(Oc2cc(NC(=O)c3ccc(F)cc3)cc(NC(=O)c3ccc(F)cc3)c2)cc1	100.0
CCOc1ccc(C(=O)OCC(=O)N2CCCCC2)cc1	85.4
N=C1/C(=C/c2ccc(SC3CCCCC3)o2)C(=O)N=C2SC=CN12	87.0
CCOC(=O)c1c(NS(=O)(=O)c2ccc(Br)cc2)sc2c1CCC(C)C2 (stereo unspecified)	100.8
Cc1ccc(C(C)C)c(OCC(=O)Nc2cc(-c3nc4ncccc4o3)ccc2C)c1	100.2
COc1ccc(CC(=O)N2N=C(C)CC2(O)C(F)(F)F)cc1 (stereo unspecified)	100.5
O=C(Nc1ccc(Cl)cc1C(F)(F)F)C(Sc1cccc[n+]1[O-])c1ccccc1 (stereo unspecified)	96.0
CCN(C(=O)CSc1nccn1C)c1ccccc1	100.7
C=CCSc1nc2c(cnn2-c2ccc(C)c(C)c2)c(=O)[nH]1	95.9
Cc1n[nH]c(C)c1CS(=O)(=O)c1ccccc1	121.1
NS(=O)(=O)c1ccc(NC(=O)c2ccc(-c3ccccc3Cl)o2)cc1	114.4
NS(=O)(=O)c1ccc2ccccc2c1	99.2
O=C(COC(=O)c1c2c(nc3ccccc13)CCC2)Nc1ccccc1	94.5
CN(c1cccc2cccnc12)S(=O)(=O)c1ccccc1	96.3
O=C(Nc1nc2ccc(Cl)cc2s1)C1CCCCC1	101.3
COc1ccc(OC)c(NC(=S)N(CCc2c(C)[nH]c3ccc(F)cc23)Cc2ccco2)c1	87.5
COC(=O)CN1C(=O)Nc2ccc(Cl)cc2C1c1ccccc1 (stereo unspecified)	99.8
COC(=O)c1cc(-c2ccc(Cl)cc2)nc2ccccc12	99.4
Cc1ccc2c(C(=O)CSc3ccccc3)c(C)[nH]c2c1	100.0
CC(=O)OCC(=O)Nc1ccccc1C(F)(F)F	99.7
c1ccc2c(CN3CCCCC3)c[nH]c2c1	99.8
N#Cc1c(-c2ccccc2)nc(N2CCCC2)[nH]c1=O	96.0
COC(=O)C1CNCCN1c1ccccc1 (stereo unspecified)	98.9
CCSc1nnc(NC(=O)CSC2=NCCS2)s1	92.0
CC(C)c1ccc(NC(=O)c2coc(=O)c3ccccc23)cc1	100.6
S=c1[nH]nc(Nc2ccccc2)s1	96.4
COC(=O)CC1(c2ccc(Cl)cc2)C(=O)c2ccccc2C1=O	100.1
O=c1[nH]c(N2CCc3ccccc32)nc2c1CCCC2	101.0
O=C(Nc1nc(-c2ccccn2)cs1)c1ccc(Br)s1	98.0
Cc1cccc(CCNC(=S)Nc2ccc3nc4n(c(=O)c3c2)CCCCC4)c1	95.9
Cc1ccccc1-c1nc(CS(=O)CC(=O)N2CCC3(CC2)OCCO3)c(C)o1 (stereo unspecified)	103.4
Cc1cccc2nc(CSC(=S)NCC3CCCO3)cn12 (stereo unspecified)	110.3
CCOC(=O)c1c(-c2ccccc2)oc2ccc(OC(C)C(=O)OC)cc12 (stereo unspecified)	95.4
Cc1cccc(-n2cnc3cc(C(=O)NCC4CCCO4)ccc32)c1 (stereo unspecified)	92.1
CC1CCCCN1C(=O)CC(=O)N1CCCCC1C (stereo unspecified)	99.5
CC(C)(CC(=O)O)CC(=O)Nc1ccc(Cl)cc1Cl	100.1
CC1CCCC(NC(=O)Cn2ncc3c(Cl)cccc32)C1C (stereo unspecified)	102.6
Cc1ccc(NC(=O)c2cc3ccccc3oc2=N)cc1	100.2
CCOc1ccc(CCNc2nnc3c4ccccc4n(CC)c3n2)cc1	104.0

Remaining list, next part:
SMILES	VACV E9 pol inh
O=C(CSC1CCCCC1)N1CCCCC1	99.6
CC(Oc1ccc2c3c(c(=O)oc2c1)CCC3)C(=O)O (stereo unspecified)	100.5
O=c1[nH]cnc2[nH]ncc12	99.8
CCCCC[C@H](O)/C=C/C1=C(C/C=C\CCCC(=O)O)C(=O)CC1	100.0
O=C(c1ccco1)N1CCN(C(=O)c2cccc3c2C(=O)N(C2CCCCC2)C3)CC1	96.2
Cc1ccc(S(=O)(=O)/N=C(/Nc2nc(C)cc(C)n2)N2CCc3ccccc32)cc1	105.1
Clc1cc2c(c(C[n+]3ccccc3)c1)OCOC2	95.8
COc1ccc(N=C(CCCN2C(=O)c3ccccc3C2=O)C2=C(O)CC(C)(C)CC2=O)cc1	96.0
C1CCN2C[C@@H]3CC(CN4CCCC[C@@H]34)[C@H]2C1	99.1
COc1ccccc1C1CC(=O)NC(SCC(=O)N2CCCC2)=C1C#N (stereo unspecified)	100.8
CCOC(=O)N1CCN(CCC(=O)c2ccc(Br)cc2)CC1	100.4
NCCCc1nc2cc3ccccc3cc2[nH]1	99.9
CCOC(=O)C1=C(NC2CCCCC2)C(=O)N(c2ccccc2)C1	100.6
CCc1ccc(NCc2cn(-c3ccccc3)nc2-c2cccs2)cc1	98.5
NC(=O)/C(=N\O)c1nc(-c2ccc(Cl)cc2)cs1	92.0
CC(CCc1ccccc1)NCC(O)c1ccc(O)c(C(N)=O)c1 (stereo unspecified)	100.9
CSc1nc2ccc(S(=O)(=O)N(C)C)cc2s1	99.5
CCc1ccc(NC(=O)CSc2nc3ccccc3[nH]2)cc1	101.4
Cc1ccc(Nc2cc(=O)[nH]c(=O)[nH]2)cc1Cl	93.8
Cc1ccccc1CSc1nc2ccsc2c(=O)n1Cc1ccccc1	97.9
COc1ccc2cc(Br)ccc2c1CC(=O)O	96.6
O=C(O)CC(NC(=O)C12CC3CC(CC(C3)C1)C2)c1ccc(Cl)cc1 (stereo unspecified)	100.2
O=C(NN1C(=O)c2ccccc2C1=O)c1ccccc1	100.8
Nc1cccc(C(=O)Nc2cccc(C(F)(F)F)c2)c1	95.0
Oc1ccc(CN2CCOCC2)c2cccnc12	102.7
CC(=O)Oc1ccc(C(=O)Nc2cc(Cl)ccc2OC(C)=O)cc1	91.6
CCCCN(CC)c1ncnc2c1sc1nc(N3CCOCC3)c3c(c12)CC(C)(C)OC3	100.3
CC[C@@H]1[C@@H](O)N2C3C[C@H]1C1C(O)[C@]4(C[C@@H]12)c1ccccc1N(C)[C@@H]34 (stereo partly specified)	100.5
COc1ccc(CC(=O)Nc2ccc3nc4n(c(=O)c3c2)CCCC4)cc1	97.2
O=C1Nc2ccc(S(=O)(=O)N(CCO)CCO)c3cccc1c23	99.5
CC1CCN(C(=S)SCC(=O)n2c3c(c4ccccc42)CCCC3)CC1	99.8
c1ccc(CSC2=NCCCN2C2CCCCC2)cc1	106.6
COc1ccc2c(c1OC)C(=O)O[C@H]2[C@@H]1c2ccccc2CCN1C	99.5
Cc1ccc(-n2nc(C)c3c(C)cc(C(=O)NCc4ccc(CN5CCOCC5)o4)nc32)cc1	104.0
Cc1ccccc1Nc1nc(Nc2ccccc2C)nc(Sc2nccn2C)n1	100.1
COc1cccc(NC(=O)CSc2nnc(N)s2)c1	99.9
O=C(CC(NCc1ccccc1)C(=O)O)c1ccc(C2CCCCC2)cc1 (stereo unspecified)	100.0
CC1CN(Cc2ccccc2)C(C)CC1O (stereo unspecified)	100.6
COc1ccc(N(C)C(=O)CCc2nc(-c3ccccc3F)no2)c(OC)c1	103.2
Cc1ccc2cccc(OCc3ccc(Br)cc3)c2n1	99.7

An excerpt from above in order of molecular weight, smallest number first.
SMILES	VACV E9 pol inh
Cc1ccc2cccc(OCc3ccc(Br)cc3)c2n1	99.7
COc1ccc(N(C)C(=O)CCc2nc(-c3ccccc3F)no2)c(OC)c1	103.2
CC1CCN(C(=S)SCC(=O)n2c3c(c4ccccc42)CCCC3)CC1	99.8

Carrying on:
SMILES	VACV E9 pol inh
CC(C)Cc1ccc2c(N)c(C(=O)c3ccccc3)sc2n1	100.9
CCN1C(=O)c2ccc(-c3nc4cc(Cl)ccc4c(=O)o3)cc2C1=O	103.7
O=C(N/C=C/c1ccsc1)Nc1cc(C(F)(F)F)cc(C(F)(F)F)c1	89.9
Cc1cc(C)c2c(n1)nn1c(C3CC3)cc(C(F)(F)F)nc21	102.1
Cn1c(C2=C(O)CN(c3ccccc3)C2=N)nc2ccccc21	105.2
COc1ccccc1NC(=O)C(F)(F)C(=O)Nc1ccccc1OC	99.8
COc1ccccc1NCC(O)COc1ccc(Cl)cc1Cl (stereo unspecified)	77.6
CCOC(=O)N1CCC(N/C=C(\C#N)S(=O)(=O)c2cccnc2)CC1	107.3
CC(Oc1ccc2ccc(=O)oc2c1)C(=O)O (stereo unspecified)	101.3
O=S(=O)(NCCc1ccccn1)c1ccc2ccccc2c1	105.1
Nc1ccc(OCc2ccccc2)cc1	91.4
CC1(C)CC(=O)C(C2C3=C(CC(C)(C)CC3=O)Oc3ccc(Br)cc32)=C(O)C1 (stereo unspecified)	99.5
CC(=O)Nc1ccc(N=CC2=C(O)CC(C)(C)CC2=O)cc1	99.9
COc1ccc(NC(=O)c2ccc3oc(=O)c(S(=O)(=O)c4ccccc4)cc3c2)cc1	94.5
O=C(CSC1=NCCS1)Nc1ccc(Cl)cc1C(F)(F)F	99.2
Clc1ccc(C=Nc2ccc3c(c2)OCCOCCOCCO3)c(Cl)c1	99.9
O=S(=O)(NC1CCCCC1)c1ccccc1	93.5
CC1CCc2c(sc3ncnc(NCCN4CCOCC4)c23)C1 (stereo unspecified)	100.6
O=C1CCCN1CCNC(=S)Nc1ccccc1	100.0
S=C1C=C(N2CCCCC2)CC(c2ccc(Cl)cc2)S1 (stereo unspecified)	97.4
CC(NCc1ccc(F)cc1)C12CC3CC(CC(C3)C1)C2 (stereo unspecified)	100.1
CCN(c1ncnc2nc[nH]c12)C1CCCCC1	99.8
COc1ccc(C=Nc2ccc(C(C)(C)C)cc2)cc1	103.5
C=CCn1c(C)c2cc(Cl)c(Cl)cc2[n+]1C	100.7
COc1cccc(-c2cc(C(=O)NCCc3ccccc3)[nH]n2)c1	103.5
CN1C(=O)S/C(=C/c2cccnc2)C1=O	99.3
Cc1cccn2cc(CNC(=O)C(C)(C)C)nc12	97.9
Cc1nc(NC2=NCN(Cc3ccccc3)CN2)nc2ccccc12	73.4*
Cc1noc(C)c1C(=O)n1cc2c(n1)-c1cc(F)ccc1SC2	100.2
Cc1[nH]c(-c2ccc(F)cc2)cc1C(=O)NC1CCCCC1	95.0
CC(=O)OC1CCC(OC(C)=O)c2c1n([O-])c(C)c(C)[n+]2=O (stereo unspecified)	99.9
O=C(/C=C/c1ccccn1)NC(Cc1c[nH]c2ccccc12)C(=O)O (stereo unspecified)	96.9
Cc1cc(C)n(-c2nnc3c(n2)[nH]c2ccccc23)n1	92.9
O=C1CC(CSc2nccc(-c3cccnc3)n2)=NN1c1ccc(Cl)cc1	97.7
CCC(C(=O)Nc1c2c(nn1-c1ccc(F)cc1)CSC2)c1ccccc1 (stereo unspecified)	95.2
Cc1nn(-c2ccccc2)c2c1C(c1cccnc1)C1=C(CC(C)(C)CC1=O)N2 (stereo unspecified)	95.6
O=C1/C(=C\c2cccs2)SC(=S)N1CC(=O)N(Cc1ccccc1)c1ccccc1	99.1
CN1CCN(CCOc2ccccc2)CC1	100.3
CC(C)Sc1nc2c(c(=O)n1-c1ccc(F)cc1)SCC2	99.4

Grouped by structure, those above with an aryl methoxy group
SMILES	VACV E9 pol inh
COc1ccc(C(=O)CN2CCCc3cc(C)ccc32)cc1	105.4
COc1ccc(CC(=O)N2N=C(C)CC2(O)C(F)(F)F)cc1 (stereo unspecified)	100.5
COc1ccc(OC)c(NC(=S)N(CCc2c(C)[nH]c3ccc(F)cc23)Cc2ccco2)c1	87.5
COc1ccc(N=C(CCCN2C(=O)c3ccccc3C2=O)C2=C(O)CC(C)(C)CC2=O)cc1	96.0
COc1ccccc1C1CC(=O)NC(SCC(=O)N2CCCC2)=C1C#N (stereo unspecified)	100.8
COc1ccc2cc(Br)ccc2c1CC(=O)O	96.6
COc1ccc(CC(=O)Nc2ccc3nc4n(c(=O)c3c2)CCCC4)cc1	97.2
COc1ccc2c(c1OC)C(=O)O[C@H]2[C@@H]1c2ccccc2CCN1C	99.5
COc1cccc(NC(=O)CSc2nnc(N)s2)c1	99.9
COc1ccc(N(C)C(=O)CCc2nc(-c3ccccc3F)no2)c(OC)c1	103.2
COc1ccccc1NC(=O)C(F)(F)C(=O)Nc1ccccc1OC	99.8
COc1ccccc1NCC(O)COc1ccc(Cl)cc1Cl (stereo unspecified)	77.6
COc1ccc(NC(=O)c2ccc3oc(=O)c(S(=O)(=O)c4ccccc4)cc3c2)cc1	94.5
COc1ccc(C=Nc2ccc(C(C)(C)C)cc2)cc1	103.5
COc1cccc(-c2cc(C(=O)NCCc3ccccc3)[nH]n2)c1	103.5
